HPGD block: inhibitors of human 15-hydroxyprostaglandin dehydrogenase (HPGD) | 4.3% of 150,000 active | purified HPGD, NADH fluorescence kinetic, PGE2 substrate | AID 894 | Potency, µM, for the others: at the top dose activity change, negative = inhibition, hits mostly inhibitors | P15428; active = well fitted inhibition curve with a large enough effect (not every such curve was filed as active); inconclusive = small, poorly fitted or top-dose-only effect, or another doubt; inactive = no such curve, though single readings can be large or run the other way;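 further: top concentration of the series not given in the record; plate controls included wells without enzyme; inactives centre near -10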
Target sequence (P15428 whole entry, looked up): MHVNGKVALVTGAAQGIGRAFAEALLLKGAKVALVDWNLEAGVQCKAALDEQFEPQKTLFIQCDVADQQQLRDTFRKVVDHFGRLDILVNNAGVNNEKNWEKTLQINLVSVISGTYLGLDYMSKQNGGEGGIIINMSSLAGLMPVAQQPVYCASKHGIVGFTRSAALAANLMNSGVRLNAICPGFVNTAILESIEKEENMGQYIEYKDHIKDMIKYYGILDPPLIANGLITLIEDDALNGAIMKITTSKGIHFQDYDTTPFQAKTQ
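20 nM HPGD preincubated 15 min at room temperature with compound in 50 mM Tris-HCl pH 8, 0.01% Tween 20. Started with 1 mM NAD+ and 30 uM prostaglandin E2; NADH fluorescence (360/450 nm) read 5 times over 30-s intervals, last minus first.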
* = called active by the depositor; u = inconclusive; & = joins results of further samples. On the % scale 0 is the no-effect control and ±100 the full control effect; potency means the concentration at half of the fitted maximal effect. Some of the compounds tested (hit frequency here may not be typical).

SMILES | HPGD block
CCOc1ccc(-c2nnc(-c3cccs3)o2)cc1OCC | u
CCOC(=O)N1CC=C2C(C#N)=C(N)C(C#N)(C#N)[C@H](c3ccsc3)[C@H]2C1 | -13%
CSc1nc(-c2ccco2)nn1S(=O)(=O)c1ccc(C)cc1 | u
CCCCC[C@H](O)/C=C/C1=C(C/C=C\CCCC(=O)O)C(=O)CC1 | -5%
Cn1c(=O)c2c(nc(N3CCCCC3)n2CCSc2nc3ccccc3s2)n(C)c1=O | -11%
O=c1[nH]cnc2[nH]ncc12 | -5%&-7%&-7%&-3%
CCNC(=O)CSc1nnc(-c2ccccc2)n1-c1ccc(OCC)cc1 | -25%
Cc1nn(CCCC(=O)Nc2cc(Oc3ccc(F)cc3)cc([N+](=O)[O-])c2)c(C)c1[N+](=O)[O-] | -17%
CC1CCN(C(=O)c2cc3nc(-c4ccccc4)cc(-c4ccccc4)n3n2)CC1 | u
COC(=O)C1=C(N)Oc2cc(N(C)C)ccc2C1c1ccccc1OC (centres undefined) | -18%
CCN(CC)S(=O)(=O)c1ccc2c(c1)nc(CCC(=O)Nc1ccccc1Cc1ccccc1)n2CC | -2%
Cc1ccc(OCC(=O)Nc2nnn(C)n2)c(C)c1 | -1%
N#C/C(=C1\C(=O)Nc2c(Cl)cc(Cl)cc21)c1nnc2n1CCCCC2 | -23%
O=C(CNC(=O)c1ccccc1F)NC1CC1 | 0%
O=C(CNC(=O)c1cccc(Cl)c1)N/N=C/C=C/c1ccccc1 | -16%
c1ccc(Cn2nc(-c3ccccc3)nc2-c2ccccc2)cc1 | -9%
CC(C)N1C/C(=C/c2cccnc2)C(=O)/C(=C/c2cccnc2)C1 | -15%
CCc1cccc(C)c1NC(=O)CCCSc1nc2ccccc2s1 | -7%
Cc1cc(NC(=O)c2cc(-c3ccccc3)on2)no1 | -16%
COc1ccc(N=C2C(=O)Nc3ccccc32)cc1 | -13%

The last two compounds of the section above lead into the next.
SMILES | HPGD block
Cc1cc(NC(=O)c2cc(-c3ccccc3)on2)no1 | -16%
COc1ccc(N=C2C(=O)Nc3ccccc32)cc1 | -13%
COc1ccc(-c2cc(C(F)(F)F)nc(SCC(=O)NCc3cccs3)n2)cc1OC | u
Nc1nc(SCc2ccccc2Cl)ns1 | -16%
Fc1ccc(Br)cc1/C=N/n1cnnc1 | -3%
CN(C)c1ccc(Nc2c3c4c(cccc4n(C)c2=O)C(=O)c2ccccc2-3)cc1 | -22%
CCOC(=O)c1ccccc1NC(=O)Nc1ccc(OC)c(OC)c1 | -6%
O=C(O)CSCCn1cccn1 | -8%
O=C(Nc1ccc2c(c1)OCO2)c1cnc2n(c1=O)CCS2 | -26%
C=CCn1c(SCC(=O)Nc2nc3ccccc3s2)nnc1-c1ccccc1O | -10%
Cc1cc(C)c(NC(=S)NC(NC(=O)c2ccccc2)C(Cl)(Cl)Cl)c(C)c1 (centres undefined) | -5%
CCn1c(N)c(C(=O)NCc2ccc3c(c2)OCO3)sc1=S | 16µM*
O=c1[nH]c(SCc2n[nH]c(=S)n2-c2ccccc2)nc2sc3c(c12)CCC3 | 13µM*
O=S(=O)(/N=C(/Nc1ccccc1F)c1ccccc1)c1ccccc1 | -14%
O=C(NCC1CCCO1)c1cccc(N2CCCC2=O)c1 (centres undefined) | -19%
CC(=O)C1=C(O)C(=O)N(CCC(=O)O)C1c1cccc(F)c1 (centres undefined) | 25µM*
COc1ccccc1-n1cnc2sc(-c3ccccc3)cc2c1=O | -16%
O=C(c1cccs1)N1CCN(C2CCN(Cc3ccccc3)CC2)CC1 | 1%
O=C(Nc1nc(-c2ccccn2)cs1)c1ccc(Br)s1 | -21%
Cc1nc(C)c(C(=O)C2=C(O)C(=O)N(CCN3CCOCC3)C2c2ccco2)s1 (centres undefined) | 0%
CN(C)c1ccc(C2CC(c3ccccc3)=Nc3nc(-c4ccccc4)cn32)cc1 (centres undefined) | -16%
O=c1[nH]c(N2CCc3ccccc32)nc2c1CCCC2 | u
CCOC(=O)C1CCN(C(=O)CCn2c(=O)[nH]c3ccsc3c2=O)CC1 | -6%
CC(C)NC(=O)CN(C(=O)CCC(=O)Nc1ccccn1)c1ccc(F)c(Cl)c1 | -2%
Cc1ccc(-c2n[nH]c(=S)n2/N=C/c2cccn2C)cc1 | 8.9µM*
CCC(=O)Nc1c(C)c(CC)nc2ccccc12 | 4%
COc1cc(C=O)ccc1OCCCOc1ccccc1C(=O)O | -10%
CCN1C(=O)N[C@@H](c2ccccc2)C1=O | -3%
COc1ccc(-c2c(C)nn(Cc3ccccc3)c2N)cc1 | -10%
CCOC(=O)c1c(NC(=O)CN2CCCc3ccccc32)sc(C)c1CC | -15%
OC1(c2cccc(C(F)(F)F)c2)CCN(c2ncnc3c2[nH]c2ccc(F)cc23)CC1 | u
Cn1c(N)c(C(=O)NCc2ccccc2Cl)sc1=S | -15%
CCOC(=O)C1(Cc2ccc(O)cc2)NC(c2ccco2)C2C(=O)N(c3ccccc3F)C(=O)C21 (centres undefined) | -9%
O=C(COCC(=O)N/N=C/c1ccc(F)cc1)N/N=C/c1ccc(F)cc1 | -2%
Cc1ccc(C(=O)CSC2=C(C#N)C(c3ccco3)C3=C(CC(C)(C)CC3=O)N2)cc1 (centres undefined) | -10%
CCOc1cc(N2CCOCC2)c(OCC)cc1NC(=O)COc1ccc2ccc(=O)oc2c1 | -5%
O=C(Nc1ccc2c(c1)CCC2)c1cccc(S(=O)(=O)N2CCN(c3ccccc3)CC2)c1 | -12%
CCCCC(=O)C1CCN(Cc2ccccc2)CC1 | -4%
O=C1C2C(C(=O)N1/N=C/c1ccc(N3CCCCC3)o1)C1C=CC2C12CC2 (centres undefined) | -17%
CCC(C)NS(=O)(=O)c1ccc(NC(C)=O)cc1 (centres undefined) | -3%
CCOC(=O)C1=C(C)N(CCCCCC(=O)O)C(=O)NC1c1ccccc1Cl (centres undefined) | -8%
Cc1cccc(NC(=O)COc2nsnc2N2CCOCC2)c1 | -7%
CCCCNC(=S)N/N=C/c1ccc(OCC(=O)Nc2c(C)cc(C)cc2C)c(OC)c1 | -24%
Cc1ccc(N(CC(O)CON=C2c3ccccc3-c3ccccc32)S(C)(=O)=O)cc1 (centres undefined) | -14%
Cc1ccc(NC(=O)CSc2nnc(C3CCCCC3)n2N)cc1F | -19%
CCOc1ccc2nc(NC(=O)Cc3cccs3)sc2c1 | -8%
Cc1cc(NC(=O)Nc2ccc(N(C)C)cc2)c2cc(F)cc(F)c2n1 | -9%
CCCN(CCC)CCCNc1ccc2nnc(-c3ccc(F)cc3)n2n1 | -9%
CCOC(=O)CNC(=O)C(CO)NC(=O)OCc1ccccc1 (centres undefined) | 0%
Cc1ccc(C)c(S(=O)(=O)N2CCN(CC(=O)Nc3ccc4c(c3)OCCO4)CC2)c1 | -4%
CCNc1nc(NC(C)C)nc(N(C#N)Cc2ccccc2)n1 | -11%
C/C(=N\OC(=O)c1cccc(Cl)c1)c1sc(C)nc1C | -22%
COc1ccc(C(=O)NC(C)(C)C)cc1S(=O)(=O)N1CCCC1 | -14%
C[C@H](CN(C)C)C(=O)c1ccccc1C(=O)O | -10%
O=C(Nc1cccc(S(=O)(=O)N2CCOCC2)c1)c1cn(-c2ccccc2)nc1-c1ccccc1 | u
Cc1ccc(C(=O)NC2CC3CCC(C2)N3Cc2ccco2)cc1 (centres undefined) | -2%
COc1ccc(CN2CC(C(=O)NCCCN3CCOCC3)CC2=O)cc1 (centres undefined) | -1%
O=S(=O)(Nc1cccnc1)c1cccc(Cl)c1 | -9%
COc1ccc(N(C(=O)c2ccco2)S(=O)(=O)c2cc(Cl)c(Cl)cc2Cl)cc1 | -14%
Cc1ccc2c(C(=O)CSc3ccccc3)c(C)[nH]c2c1 | -6%
COc1ccc(C(c2sc3nc(C)nn3c2O)N2CCN(CCO)CC2)cc1OC (centres undefined) | -3%
Cc1ccc(NC(=O)C2CCCN(S(=O)(=O)c3cnc[nH]3)C2)cc1C (centres undefined) | -11%
Other structures
SMILES | HPGD block
CCCc1[nH]nc2c1C1(CCOC1C)C(C#N)=C(N)O2 (centres undefined) | -3%
O=C(Cl)c1ccccc1[N+](=O)[O-] | -1%
CC1C(=O)CC(c2ccccc2)NC1c1ccccc1 (centres undefined) | -15%
CCOC(=O)C1=C(C)C2C3C(=O)N(c4ccc(C)cc4C)C(=O)C3C1(C)C1C(=O)N(c3ccc(C)cc3C)C(=O)C21 (centres undefined) | -14%
CCOc1ncccc1C(=O)OCc1c(Cl)cccc1Cl | -5%
CC(C)(C)n1nnnc1C(c1cccc(C#N)c1)N1CCN2CCCC2C1 (centres undefined) | 1%
O=C(Nc1ccccc1-c1nc2ccccc2[nH]1)c1ccc(S(=O)(=O)N2CCCCC2)cc1 | u
COc1ccccc1C(=O)NC(=S)NNC(=O)c1sc2ccccc2c1Cl | 32µM*
Cn1c(SCC(=O)Nc2ccccc2-c2ccccc2)nnc1-c1ccco1 | -18%
COc1ccc(N(CC(=O)NC2CCCCC2)S(=O)(=O)c2c(C)[nH]c(=O)[nH]c2=O)cc1 | -8%
CC(C)CCNC(=O)COc1ccc2c(c1)C(=O)CC(C)(C)O2 | u
COc1ccc(CNC(=O)CCS(=O)(=O)c2cccc3nonc23)cc1 | -6%
O=C(Cc1nnc(NC(=O)Nc2ccccc2)s1)NCc1ccccc1 | -1%
Brc1ccc(C2Nc3cccc4cccc(c34)N2)o1 | u
CC1C[C@@]2(NC(=O)NC2=O)C(C)CN1C (some centres undefined) | -15%
CC(=C/c1ccco1)/C=N/NC(=O)Cc1cccn1C | -26%
Cc1cccc(-n2c(Cc3cc(=O)[nH]c(=O)[nH]3)nnc2SCC(=O)N2CCCCC2)c1 | -14%
Cc1ccc(N2CCN(C(=O)c3ccccc3NC(=O)c3ccccc3C(=O)O)CC2)cc1 | 1%
O=C(CCCN1C(=O)c2cccc3cccc(c23)C1=O)N1CCN(Cc2ccc3c(c2)OCO3)CC1 | u
O=S(=O)(c1ccc(-c2csc(=Nc3ccccc3)n2CCCN2CCOCC2)cc1)N1CCOCC1 | -5%

HPGD block: entries above that show a hit.
SMILES | HPGD block
CCn1c(N)c(C(=O)NCc2ccc3c(c2)OCO3)sc1=S | 16µM*
O=c1[nH]c(SCc2n[nH]c(=S)n2-c2ccccc2)nc2sc3c(c12)CCC3 | 13µM*
CC(=O)C1=C(O)C(=O)N(CCC(=O)O)C1c1cccc(F)c1 (centres undefined) | 25µM*
Cc1ccc(-c2n[nH]c(=S)n2/N=C/c2cccn2C)cc1 | 8.9µM*
COc1ccccc1C(=O)NC(=S)NNC(=O)c1sc2ccccc2c1Cl | 32µM*

A different layout for 2 compounds above:
HPGD block,molecule
1%,CC(C)(C)n1nnnc1C(c1cccc(C#N)c1)N1CCN2CCCC2C1 (centres undefined)
u,O=C(Nc1ccccc1-c1nc2ccccc2[nH]1)c1ccc(S(=O)(=O)N2CCCCC2)cc1

(further entries)
SMILES | HPGD block
COc1ccc(NC(=O)CN(c2ccc(C)cc2)S(=O)(=O)c2c(C)nn(C)c2C)cc1OC | -8%
O=C(Cc1ccsc1-c1ccccc1)NO | -4%
CC(C)Sc1nc2c(c(=O)n1-c1ccc(F)cc1)SCC2 | -19%
CCCCNS(=O)(=O)c1ccc2nc(SCC(=O)N3CC(C)OC(C)C3)[nH]c2c1 (centres undefined) | 16µM*
CCN1C(=S)SC(=O)C1=C1C=C(C)OC(C)=C1 | -12%
COCCOC(=O)c1c(C)oc2ccc(OC(=O)c3c(OC)cccc3OC)cc12 | -27%
CCN1CCN(C(=O)c2cc3c(s2)-c2ccccc2S(=O)(=O)C3)CC1 | -8%
Cc1csc(SCCn2c(Br)nc3c2c(=O)[nH]c(=O)n3C)n1 | 0%
CC(C#N)(Nc1ccc(Cl)cc1)c1cccnc1 (centres undefined) | 0%
CCc1cccc(C)c1NC(=S)NCc1cccn1C | -15%
CC(=O)OC1CCC(OC(C)=O)c2c1n([O-])c(C)c(C)[n+]2=O (centres undefined) | 2%
CCOC(=O)N1CCC(NC(=O)C2CCN(C(=O)N3CC(C)Oc4ccc(C)cc43)CC2)CC1 (centres undefined) | -11%
O=C(Nc1ccccc1)c1ccc2c(c1)OCCO2 | -18%
CC(=O)c1ccc(S(=O)c2ccccc2)cc1 (centres undefined) | u
O=C1NC2C(NC(=O)N2C2CCCCC2)N1C1CCCCC1 (centres undefined) | -11%
COC(=O)C1=C(C)NC2=C(C(=O)CC(c3cccs3)C2)C1c1ccsc1 (centres undefined) | -26%
CC(C)CCNc1nc2c(c(=O)n(Cc3cccc(F)c3)c(=O)n2C)n1C | u
O=C(NCc1cccc2ccccc12)[C@H]1C[C@@H]1[C@H](NP(=O)(c1ccccc1)c1ccccc1)c1ccccc1 | -39%
CCOc1ccc(C2=Nn3c(nnc3-c3ccccc3)SC2)cc1Cl | -9%
CCOc1ccc(OCC)c(NS(=O)(=O)c2ccc3c(c2)CCN3C(=O)C2CCC2)c1 | -4%

Rewritten with the structure last: part of the list above.
HPGD block | compound
2% | CC(=O)OC1CCC(OC(C)=O)c2c1n([O-])c(C)c(C)[n+]2=O (centres undefined)
-11% | CCOC(=O)N1CCC(NC(=O)C2CCN(C(=O)N3CC(C)Oc4ccc(C)cc43)CC2)CC1 (centres undefined)
-18% | O=C(Nc1ccccc1)c1ccc2c(c1)OCCO2
u | CC(=O)c1ccc(S(=O)c2ccccc2)cc1 (centres undefined)

New compounds follow
SMILES | HPGD block
N[C@H](Cc1ccc(O)cc1)C(=O)O | -2%
C/C=C(\C)c1nnc(NC(=O)c2ccco2)s1 | -9%
Cc1nc(NC2=NCN(Cc3ccccc3)CN2)nc2ccccc12 | -9%
CN(Cc1cccs1)C(=O)Cc1c[nH]c2ccccc12 | -18%
CC(=O)[C@@H]1[C@@H](C)N(Cc2ccccc2)C(=O)N[C@H]1c1cccc(C(F)(F)F)c1 | -13%
COc1cc(C2=NOC(C(=O)NCc3cccs3)C2)cc(OC)c1OC (centres undefined) | -20%
N/C(=N\OC(=O)C12CC3CC(CC(C3)C1)C2)c1ccccc1 | -28%

High-throughput results as filed in PubChem BioAssay.
